KCNQ2 pot – potentiators of rat KCNQ2 potassium channel. O88943. CHO-K1 KCNQ2, FluxOR thallium flux fluorescence; hits give high values. B-score at 10 µM. 310,000 tested, 0.54% active. AID 2239;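 active = fluorescence ratio B-score at least 3 SD of library B-scores, with initial fluorescence B-score within 3 SD, cut at about 5.3 in these data; same plate scores as AID 2156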;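 also: B-score of peak minus minimum over baseline fluorescence ratio after K+ and Tl+ stimulus; positive B-score means potentiation of KCNQ2 with more thallium influx and brighter signal; only the inactives scoring about 0 or higher are listed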
Target sequence (O88943 whole entry, looked up): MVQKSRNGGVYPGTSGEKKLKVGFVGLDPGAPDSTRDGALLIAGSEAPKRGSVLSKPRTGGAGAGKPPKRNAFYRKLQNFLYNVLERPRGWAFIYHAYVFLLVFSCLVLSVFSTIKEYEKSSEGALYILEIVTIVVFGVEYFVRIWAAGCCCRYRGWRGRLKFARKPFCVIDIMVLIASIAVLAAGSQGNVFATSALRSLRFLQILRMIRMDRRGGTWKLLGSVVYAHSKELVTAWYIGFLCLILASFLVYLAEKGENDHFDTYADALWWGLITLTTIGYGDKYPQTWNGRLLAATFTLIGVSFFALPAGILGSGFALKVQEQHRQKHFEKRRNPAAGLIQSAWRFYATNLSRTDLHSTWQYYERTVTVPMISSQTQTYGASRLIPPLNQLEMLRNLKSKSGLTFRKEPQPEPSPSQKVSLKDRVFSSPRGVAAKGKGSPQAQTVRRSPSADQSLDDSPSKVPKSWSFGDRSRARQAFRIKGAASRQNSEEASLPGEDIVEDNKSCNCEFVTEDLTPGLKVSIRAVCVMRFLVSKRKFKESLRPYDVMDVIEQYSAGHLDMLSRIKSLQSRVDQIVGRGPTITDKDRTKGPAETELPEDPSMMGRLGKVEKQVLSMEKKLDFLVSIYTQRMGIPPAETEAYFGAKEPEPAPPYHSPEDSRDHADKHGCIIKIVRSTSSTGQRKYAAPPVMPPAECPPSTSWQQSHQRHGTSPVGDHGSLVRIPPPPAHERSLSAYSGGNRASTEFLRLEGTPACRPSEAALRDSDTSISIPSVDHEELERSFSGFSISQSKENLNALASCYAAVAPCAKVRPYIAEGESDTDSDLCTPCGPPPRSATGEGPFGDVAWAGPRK
KCNQ2 pot baseline – further read-out of KCNQ2 pot, marked with its call; B-score; compound at 10 µM; measured here: initial fluorescence intensity artifact check;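 brightness before thallium and not channel activity; 0 = typical well and far values either way flag optical interference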
An asterisk follows results filed as active. These rows are one share of the data (hit frequency here may not be typical).

Order of values – KCNQ2 pot	KCNQ2 pot baseline
#1 CCOC(=O)Cn1c(=O)oc2cc(S(=O)(=O)NCCC(C)C)ccc21
    0.21	-2.2
#2 CCOC(=O)C1CCN(C(=O)c2cc3cc4cc(OC)ccc4nc3o2)CC1
    0.24	0.07
#3 O=C(c1ccccc1F)N1CCN(c2ccc([N+](=O)[O-])c(NCc3cccnc3)c2)CC1
    0.72	-2.1
#4 COc1ccc(-c2cc3ccc(OCc4nn[nH]n4)cc3oc2=O)cc1
    0.69	0.58
#5 O=[N+]([O-])c1ccc(Sc2n[nH]c(-c3ccccc3)n2)nc1
    2.2	-1
#6 CN(CCOC(=O)c1cccc(F)c1)Cc1ccccc1
    1.8	-2.3
#7 CNC(=O)COC(=O)c1ccc(OCC(=O)Nc2ccccc2OC)c(OC)c1
    0.55	0.04
#8 CC(C)CCNc1nc2ccccc2nc1NS(=O)(=O)c1cccs1
    1.3	-0.44
#9 CCOC(=O)c1ccc(-c2ccc(/C=N/NC(=O)c3cncc(Br)c3)o2)cc1
    1.1	0.44
#10 O=C(N1CCN(c2ccccc2F)CC1)C1(c2cccs2)CCOCC1
    0.4	-0.46

Remaining list, next part
Order of values – KCNQ2 pot	KCNQ2 pot baseline
#11 O=C(c1ccc(Cl)cc1)c1c[nH]c(C(=O)NNc2cccc(Cl)n2)c1
    1.7	0.56
#12 Cc1[nH]c2ccc(C(=O)NCCN3CCCCCC3)cc2c1C
    0.54	0.36
#13 CCCC(O)(CCN1CCOCC1)c1ccc(Cl)cc1 (centres undefined)
    0.84	-2
#14 COc1ccc(C2c3c(-c4ccccc4)n[nH]c3C(=O)N2c2ccc(C(=O)O)cc2)cc1 (centres undefined)
    0.95	-0.51
#15 COc1cc(CNS(=O)(=O)c2ccc3c(c2)CC(C)N3C(=O)C2CCC2)cc(OC)c1OC (centres undefined)
    0.82	-0.08
#16 Cc1cc(NC(=O)c2ccccc2)n(-c2ccccc2)n1
    1.7	-0.95
#17 Nc1nc(NC(=O)c2cccs2)nn1-c1ccccc1
    1	-2.2
#18 COC(=O)c1ccc(NC(=O)C2C3C=CC(O3)C2C(=O)O)cc1 (centres undefined)
    0.84	-0.02
#19 Cc1cccc(NC(=O)CCCCCN2C(=O)c3ccccc3C2=O)n1
    0.26	-0.38
#20 CC/C(=N\NC(=O)c1nnn(-c2nonc2N)c1-c1cccs1)c1ccccc1
    0.94	-0.93

The listing continues.
Order of values – KCNQ2 pot	KCNQ2 pot baseline
#21 COc1ccc(C(=O)N/N=C/c2ccccc2C(=O)O)cc1OC
    1.2	1.8
#22 Cc1ccc(NC2SC(=O)N(Cc3cccc(C(=O)O)c3)C2=O)c(C)c1 (centres undefined)
    1.9	-0.69
#23 COc1cccc(/C(C)=N/NC(=O)Cc2c(C)[nH][nH]c2=O)c1
    0.03	-0.01
#24 O=C(Nc1cccc(-c2nn[nH]n2)c1)c1ccc(Cl)s1
    1.9	1
#25 Cc1cc(C(=O)NCc2cc(F)cc3c2OCOC3)nn1C
    0.48	0.12
#26 CCc1ccccc1OCc1nnc(N)s1
    0.25	0.01
#27 COc1ccccc1-n1c(SCC(=O)N(C)C2CCS(=O)(=O)C2)nc2ccccc2c1=O (centres undefined)
    0.07	0.74
#28 CN(C)S(=O)(=O)Nc1cccc(NC(=O)CC23CC4CC(CC(C4)C2)C3)c1
    7.8*	-1.4*
#29 Cc1ccc(S(=O)(=O)N2C(=O)CCC2C(=O)N2CCCCC2)cc1 (centres undefined)
    0.37	0.9
#30 Cc1cc(N)n(-c2ccccn2)n1
    0.95	-0.97

(further entries)
Order of values – KCNQ2 pot	KCNQ2 pot baseline
#31 Cc1cccc(C(=O)NCc2nnc(SCC(=O)NC3CCCC3)n2C)c1
    0.04	0.55
#32 O=C(O)CCNC(=O)/C(=C/C=C/c1ccccc1)NC(=O)c1ccccc1
    0.51	0.27
#33 CCNC(=S)Nc1sc2c(c1C#N)CCC(C)C2 (centres undefined)
    0.68	-0.53
#34 C/C(=N\Nc1cccc2cccnc12)c1ccccc1O
    0.84	-0.46
#35 CCOC(=O)Cc1cc(=O)[nH]c(/N=C(\N)Nc2ccc(C)c(C)c2)n1
    1.4	-0.2
#36 CS(=O)(=O)/C(C#N)=C/c1cccn1S(=O)(=O)c1ccccc1
    0.12	-0.33
#37 COc1ccc(Cl)cc1Nc1cc(C)nc2nc(C)nn12
    0.16	1.3
#38 COc1ccccc1CCCNC(=O)C1CCC(=O)N(Cc2ccccc2F)C1 (centres undefined)
    1.2	0.04
#39 Cc1cccc(N2CCN(C(=O)C3CCN(S(=O)(=O)N4CCOCC4)CC3)CC2C)c1 (centres undefined)
    0.73	-0.45
#40 CS(=O)(=O)Oc1ccc(/C=C2\C(=N)N3N=C(CC(=O)N4CCOCC4)SC3=NC2=O)cc1Cl
    1.1	0.45

Additional records:
Order of values – KCNQ2 pot	KCNQ2 pot baseline
#41 O=C(OCN1C(=O)c2ccccc2C1=O)c1cccc(S(=O)(=O)N2CCOCC2)c1
    0.52	0.92
#42 Cc1cc(C)c[n+](C(C)C(=O)c2ccc(Cl)cc2)c1 (centres undefined)
    0.5	-0.53
#43 CC1CCc2nc3ccc(S(=O)(=O)N4CCC(C(=O)O)CC4)cc3c(C(=O)O)c2C1 (centres undefined)
    0.94	-0.3
#44 COc1ccc(NC(=O)CC(C)NCCCN2CCCC2=O)cc1 (centres undefined)
    0.93	-0.02
#45 CCOc1ccc(OCC(=O)OCn2c(SC)nnc(C)c2=O)cc1
    0.09	-2
#46 Cc1cc(NS(=O)(=O)c2ccc(NC(=O)C(C)Oc3ccc(C(C)C)cc3)cc2)no1 (centres undefined)
    1	1.3
#47 CCc1ccc(-n2c(=S)sc3c(=O)n(-c4ccccc4C)c(SCC(=O)O)nc32)cc1
    0.41	-1.3
#48 COc1ccc(/C(C)=N/NC(=O)CNC(=O)c2cccnc2)cc1OC
    0.03	-0.02
#49 CC(=O)C1=C(O)CCCC1=NCc1nc2ccccc2[nH]1
    0.02	4.3
#50 CC(C)(NC(=O)c1cc(Cl)c2ccccc2c1O)C(=O)O
    0.59	-1.5

The list continues.
Order of values – KCNQ2 pot	KCNQ2 pot baseline
#51 CCOC(=O)C1CCN(C(=O)Cc2ccc(OC)c(OC)c2)CC1
    0.67	0.27
#52 COCCn1c(-c2ccc(Cl)cc2)cnc1SCC(=O)NCCc1ccc(OC)c(OC)c1
    1.8	0.3
#53 CSc1ccc(C(=S)N2CCN(C)CC2)cc1
    0.02	-1.6
#54 O=C(CN1CCOCC1)NNC(=S)Nc1ccc(Cl)cc1
    0.04	-2.2
#55 Cc1ccc(S(=O)(=O)N2CCC(=O)N(CCOC(=O)Nc3ccc(F)cc3)CC2)cc1
    0.04	1.8
#56 O=c1c2ccccc2nc(/C=C/c2ccccc2)n1CCCO
    2.5	0.48
#57 Cc1cc(Cl)c(S(=O)(=O)NCc2cccnc2)cc1OCC(=O)NC1CCCCC1
    0.19	0.86
#58 Cc1cc([N+](=O)[O-])nn1CCCC(=O)Nc1cccnc1Cl
    0.12	-1
#59 Cc1nn(C(=O)c2cc([N+](=O)[O-])ccc2Cl)c(C)c1Br
    0.36	-1.2
#60 COc1cccc(-n2c(Cc3cc(=O)[nH]c(=O)[nH]3)nnc2SCC(=O)N2CCC(C)CC2)c1
    1.4	2.1

The final two entries of the section before come first, to join the parts:
Order of values – KCNQ2 pot	KCNQ2 pot baseline
#59 Cc1nn(C(=O)c2cc([N+](=O)[O-])ccc2Cl)c(C)c1Br
    0.36	-1.2
#60 COc1cccc(-n2c(Cc3cc(=O)[nH]c(=O)[nH]3)nnc2SCC(=O)N2CCC(C)CC2)c1
    1.4	2.1
#61 CC#CC(=O)N1CCC(CCc2ccccc2)(C(=O)OCC)CC1
    1.3	-0.82
#62 Cc1nn(-c2ccccc2)c(C)c1P(=O)(c1ccccc1)N(C)C (centres undefined)
    0.95	0
#63 O=C(O)C1Nc2ccc(Br)cc2C2C=CCC12 (centres undefined)
    0.65	0.4
#64 Cc1ccc2cc(CN(C(=O)c3ccco3)c3cccc(C)c3C)c(=O)[nH]c2c1
    0.28	-2.3
#65 CCNc1nc(NCC)nc(N/N=C/c2ccc(O)c(O)c2)n1
    0.68	1.8
#66 CCNC(=S)N(CCN(C)C)Cc1cc2cc(OCC)ccc2[nH]c1=O
    1.3	1.4
#67 Clc1ccc(Cn2ncc3c(N4CCCCC4)ncnc32)c(Cl)c1
    0.92	0.61
#68 CCOc1ccc(-c2nnc3sc(COc4ccc(C)cc4)nn23)cc1
    0.19	0.35
#69 O=C(Nc1cccc(C(=O)N2CCOCC2)c1)c1ccccc1
    0.75	-0.6
#70 Cc1ccc(C(=O)NCCCNC(=O)c2ccco2)cn1
    1.3	-0.28

(more compounds)
Order of values – KCNQ2 pot	KCNQ2 pot baseline
#71 O=C1c2ccccc2C(=O)N1S(=O)(=O)c1ccccc1
    0.68	0
#72 CN(Cc1c(C(=O)N/N=C/c2ccccc2)nnn1-c1nonc1N)C1CCCCC1
    0.87	-1.1
#73 CCOc1ccc(Br)cc1S(=O)(=O)NC(=O)c1ccccc1
    0.59	1.4
#74 N#Cc1ccsc1NC(=O)CN1C(=O)NC2(CCCCC2)C1=O
    0.01	0.08
#75 CC1(C)CC(=O)C(C(N)=NC(=O)c2ccccc2)=C(O)C1
    0.2	0.66
#76 CCC(C)[C@H]1CNCCN1CCc1cc(C(F)(F)F)cc(C(F)(F)F)c1 (some centres undefined)
    0.67	0.98
#77 COc1ccc(NC(=O)c2ccccc2SC)cc1
    0.44	-0.48
#78 O=C(Nc1cc(Cl)ccc1Cl)N1CCCC1
    0.01	0.2
#79 Cc1ccc(C2=NN(S(C)(=O)=O)C(c3ccc4c(c3)OCO4)C2)cc1 (centres undefined)
    1.2	-0.02
#80 CC(Oc1ccc([N+](=O)[O-])cc1Cl)C(=O)Nc1ccc(C(N)=O)cc1 (centres undefined)
    1.8	-2.5

(more compounds)
Order of values – KCNQ2 pot	KCNQ2 pot baseline
#81 Clc1ccc2c(N/N=C/c3cccnc3)ccnc2c1
    1.1	-1
#82 CN(C)CCCOC(=O)c1ccc(Cl)cc1
    1.3	0.2
#83 CC(OC(=O)C(NC(=O)c1ccco1)C(C)C)C(=O)Nc1ncc(Cl)cc1Cl (centres undefined)
    1.4	1.3
#84 C/C(N)=C(/C#N)C(=O)COC(=O)CSc1ccc2ccccc2c1
    1.6	-1.3
#85 CCOc1ccc(C(=O)c2ccc([N+](=O)[O-])cc2Cl)cc1
    0.62	0.17
#86 Nc1cc(C(=O)OCC(=O)NCC2CCCO2)ccc1Cl (centres undefined)
    0.91	0.57
#87 O=C(NNc1cccc(Cl)n1)Nc1ccccc1F
    0.88	-0.04
#88 COc1cccc(C(=O)NNC(=O)CCc2ccccc2)c1
    0.59	-1.6
#89 O=S(=O)(NCCc1csc(-c2cccnc2)n1)c1cccs1
    1.4	0.29
#90 O=C(Nc1ccc(N2CCCCC2)cc1)C(Cl)c1ccccc1 (centres undefined)
    1.2	-0.88

From no. 86 as far as 90, copied from above:
Order of values – KCNQ2 pot	KCNQ2 pot baseline
#86 Nc1cc(C(=O)OCC(=O)NCC2CCCO2)ccc1Cl (centres undefined)
    0.91	0.57
#87 O=C(NNc1cccc(Cl)n1)Nc1ccccc1F
    0.88	-0.04
#88 COc1cccc(C(=O)NNC(=O)CCc2ccccc2)c1
    0.59	-1.6
#89 O=S(=O)(NCCc1csc(-c2cccnc2)n1)c1cccs1
    1.4	0.29
#90 O=C(Nc1ccc(N2CCCCC2)cc1)C(Cl)c1ccccc1 (centres undefined)
    1.2	-0.88

More structures follow.
Order of values – KCNQ2 pot	KCNQ2 pot baseline
#91 CC1Cc2ccccc2N1C(=O)COC(=O)CNC(=O)c1ccc(Br)o1 (centres undefined)
    0.35	-1.7
#92 COC(=O)c1cn(Cc2ccc(C(F)(F)F)cc2)cc(F)c1=O
    0.58	1.4
#93 O=C(CN1C(=O)NC2(CCCC2)C1=O)Nc1ccc(Cl)cc1C(F)(F)F
    0.1	1
#94 Cc1cc(NC(=O)CSc2nccn2-c2ccc([N+](=O)[O-])cc2)no1
    0.77	-0.71
#95 COc1ccc(NCc2nnc(SCC(=O)NCc3ccco3)n2-c2ccccc2OC)cc1
    1.1	-0.1
#96 CC(C)C(C)NC(=O)COc1ccc(S(=O)(=O)N2CCOCC2)cc1Cl (centres undefined)
    1.1	0.01
#97 C/C(CC(=O)Nc1ccc(N(C)C)cc1)=N\NC(=O)c1cnccn1
    2	0.31
#98 COc1ccc(CCC(=O)Nc2nc(C)c(C(=O)N(C)C)s2)cc1
    1.4	-2.8
#99 Cc1cc(OCC(=O)Nc2ccc(N3CCCC3)cc2)cc(C)c1Cl
    0.2	-0.71
#100 Cc1nc(NC(=O)/C=C/c2ccccc2)sc1C(=O)Nc1cccc(Cl)c1
    0.97	1.6

Laid out differently: 2 of the compounds above
97) C/C(CC(=O)Nc1ccc(N(C)C)cc1)=N\NC(=O)c1cnccn1
  KCNQ2 pot = 2
  KCNQ2 pot baseline = 0.31

93) O=C(CN1C(=O)NC2(CCCC2)C1=O)Nc1ccc(Cl)cc1C(F)(F)F
  KCNQ2 pot = 0.1
  KCNQ2 pot baseline = 1

(next part)
Order of values – KCNQ2 pot	KCNQ2 pot baseline
#101 O=Cc1ccc(OCCN2CCCC2=O)cc1
    0.1	0.28
#102 O=C(NCC1CCCO1)C1CCN(C2CCN(CCCC3CCCC3)CC2)CC1 (centres undefined)
    0.22	0.82
#103 CC(C(=O)O)c1ccc(-c2ccccc2)c(F)c1 (centres undefined)
    0.75	0.05
#104 Cc1cccc(Nc2nnc(SCC(=O)NCc3cccs3)s2)c1
    2.1	-0.95
#105 Cc1ncc([N+](=O)[O-])n1CC(=O)Nc1ccc(Br)cc1
    1.1	-1
#106 Cc1ccc2c(-c3ccc([N+](=O)[O-])cc3)cc(=O)[nH]c2c1
    0.26	-0.15
#107 COc1cccc(/C=C2\SC(=O)N(CCC(=O)N3CCCCC3CCO)C2=O)c1 (centres undefined)
    1.5	-0.36
#108 Cn1nnnc1SCC(=O)Nc1nc(-c2ccc(F)c(F)c2)cs1
    0.06	1.9
#109 O=c1c2ccccc2[nH]c(=S)n1CCC1=CCCCC1
    8.4*	-0.01*
#110 O=C(Nc1ccc(Nc2ccccc2)cc1)c1ccc(Br)cc1
    0.67	-0.01

From PubChem
